High-throughput results deposited in PubChem by National Center for Advancing Translational Sciences (NCATS).
StopGo reporter: High Throughput Screening for Foot and Mouth Disease Virus Antivirals; human cells with a luciferase reporter of 2A StopGo recoding; control for the full effect not named in the record; Potency, µM (doses to about 57.9 µM), without a hit: at the highest dose signal change, negative = less light; 410,000 tested, 1.2% active; AID 1159524, 2015; active = well fitted falling curve with a large enough effect; inconclusive = small, poorly fitted or top-dose-only effect; inactive = no such curve, though single readings can be large or run the other way; tested in HEK293T cells; note: % is set by controls: 0 for no effect and ±100 for the full control effect; nearly all actives have a fitted effect of over 45% in size; luciferase light after 4 h
SARS PLP yeast: qHTS of Yeast-based Assay for SARS-CoV PLP. S. cerevisiae expressing SARS-CoV PLpro, growth rescue; control for the full effect not named in the record. Potency, µM (series often up to 32.9 µM), for the others: at the highest dose activity, positive = growth rescue. 330,000 tested, 0.19% active; note: 0% is about no effect; nearly all actives have a fitted effect of over 55% in size; growth read by luminescence after 48 h
Cruzain Triton: qHTS Assay for Promiscuous and Specific Inhibitors of Cruzain (with detergent) | 200,000 tested, 0.43% active | Potency, µM, inactives show max response, negative = inhibition, usual class: inhibitors | purified cruzain, Z-FR-AMC fluorescence, 0.01% Triton; active = well fitted curve in the direction sought with a large enough effect; inconclusive = small, poorly fitted or top-dose-only effect, or another doubt; inactive = no such curve, though single readings can be large; an effect the other way counts as inactive or inconclusive;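 note: plate controls were neutral wells for no effect and buffer without enzyme for full effect; nearly all actives have a fitted effect of over 40% in size; top concentration of the series not given in the record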
Target sequence (P25779 123-467 limits assumed): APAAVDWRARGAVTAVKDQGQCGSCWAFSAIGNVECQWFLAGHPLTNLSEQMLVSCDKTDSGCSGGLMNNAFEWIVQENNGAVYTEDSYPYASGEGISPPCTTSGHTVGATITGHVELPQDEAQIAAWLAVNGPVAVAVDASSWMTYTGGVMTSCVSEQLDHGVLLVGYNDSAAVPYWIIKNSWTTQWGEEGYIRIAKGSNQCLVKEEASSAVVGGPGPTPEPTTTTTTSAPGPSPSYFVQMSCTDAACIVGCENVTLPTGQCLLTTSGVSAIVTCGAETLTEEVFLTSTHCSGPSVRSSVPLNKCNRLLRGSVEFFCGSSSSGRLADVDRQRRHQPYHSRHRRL
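Detergent-containing arm of a paired screen for aggregation-based inhibition: 0.01% Triton X-100 present. Cruzain at 1.5 nM cleaved 2 uM Z-FR-AMC at pH 5.5 with 5 mM DTT; AMC fluorescence gain over 60 s measured activity.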
Lassa entry inh: qHTS for Inhibitors of binding or entry into cells for Lassa Virus; Lassa virus pseudotype entry inhibition, cell reporter; control for the full effect not named in the record; Potency, µM (titrated, usually from 37.9 µM), inactives show top-dose activity change, negative = inhibition, hits mostly inhibitors; 300,000 tested, 1.2% active; active means well fitted inhibition curve with a large enough effect; inconclusive means small, poorly fitted or top-dose-only effect, or effect the other way; inactive means flat fitted curve, though single readings scatter; tested in HEK293 cells; note: % is set by controls: 0 for no effect and ±100 for the full control effect; nearly all actives have a fitted effect of over 50% in size; luciferase read-out
Cruzain noTriton: qHTS Assay for Promiscuous and Specific Inhibitors of Cruzain (without detergent); AID 1476, 2009; 200,000 tested, 2.3% active; Potency, µM, without a hit: max response, negative = inhibition, most hits filed as inhibitors; Cruzipain (Trypanosoma cruzi), P25779; purified cruzain, Z-FR-AMC fluorescence, no detergent; active = well fitted curve in the direction sought with a large enough effect; inconclusive = small, poorly fitted or top-dose-only effect, or another doubt; inactive = no such curve, though single readings can be large; an effect the other way counts as inactive or inconclusive;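 note: plate controls were enzyme without inhibitor for no effect and buffer without enzyme for full effect; nearly all actives have a fitted effect of over 40% in size; top concentration of the series not given in the record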
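Detergent-free condition (0.00005% Triton X-100) in acetate buffer pH 5.5 with DTT. 1.5 nM enzyme and compound were pre-mixed 15 min, then 2 uM Z-FR-AMC substrate added; reaction progress from fluorescence change between first and third reads (60 s).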
RE007 growth inh: qHTS Assay for Inhibitors of the HIV-1 protein Vpr | S. pombe RE007 Vpr strain, BacTiter-Glo ATP luminescence, 24 h; control for the full effect not named in the record | 360,000 tested, 0.21% active | Potency, µM (highest dose often 92.2 µM), without a hit: top-dose activity change, negative = less growth | AID 651644, 2012; active = well fitted falling curve with a large enough effect; inconclusive = small, poorly fitted or top-dose-only effect; inactive = no such curve, though single readings can be large or run the other way;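 note: % is set by controls: 0 for no effect and ±100 for the full control effect; nearly all actives have a fitted effect of over 50% in size; the assay follows cell death caused by Vpr and the record does not say whether a fall means rescue or toxicity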
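Fission yeast strain RE007, carrying one chromosomally integrated HIV-1 vpr copy, was seeded at OD 0.01 in PMG+AL medium with 23 nL pinned compound. After 24 h at 30 °C and 99% humidity, viability was read by BacTiter-Glo luminescence.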
Marburg entry inh: qHTS for inhibitors of binding or entry into cells for Marburg Virus. Marburg virus pseudotyped entry inhibition, cell reporter; control for the full effect not named in the record; about a third of the inactives were read at about 46 µM. 300,000 tested, 1.8% active. Potency, µM (titrated, usually from 37.8 µM), for the others: at the top dose activity change, negative = inhibition, actives largely listed as inhibitors; active = well fitted inhibition curve with a large enough effect; inconclusive = small, poorly fitted or top-dose-only effect, or effect the other way; inactive = flat fitted curve, though single readings scatter; tested in HEK293 cells; about a fifth of its hits are not listed in these tables; note: % is set by controls: 0 for no effect and ±100 for the full control effect; luciferase read-out
NS1 inh: qHTS Assay for Inhibitors of Influenza NS1 Protein Function. S. cerevisiae slowed by influenza A NS1, growth recovery by OD600. Potency, µM (titrated, usually from 46.1 µM), for inactives: top-dose activity, positive = more growth. 270,000 tested, 0.4% active; note: actives are rising curves; nearly all actives have a fitted effect of over 50% in size
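Compounds were scored for reversing the slow growth caused by influenza A NS1 in S. cerevisiae, measured by optical density at 600 nm. Assay medium contained 2% galactose at pH 6.0; NS1-free yeast of the same strain were the positive control.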
Numbers without * were called inactive; & = joins results of further samples; [ ] = dose if it differs, or a comment. Unless noted, calls come from the whole dose curve; as a rule, active means well fitted rising curve with a large enough effect; inconclusive means small, poorly fitted or top-dose-only effect; inactive means no such curve, though single readings can be large or run the other way. Potency is the fitted concentration of half-maximal effect.

How did CCCCn1c(SCC(=O)N2CCOCC2)nc2ccccc2c1=O do in these assays?
StopGo reporter: 0.0%; SARS PLP yeast: 0.5%; Lassa entry inh: -8.8%[46.1 µM]; RE007 growth inh: -22.3%; Marburg entry inh: -9.9%[46.1 µM]; NS1 inh: -2.0%

Results for CCC(NC(=O)Nn1cnnc1)(C(F)(F)F)C(F)(F)F ?
StopGo reporter: 8.7%; SARS PLP yeast: -1.6%; Cruzain Triton: -1.0%; Lassa entry inh: -2.8%; Cruzain noTriton: 8.4%; RE007 growth inh: 15.4%; Marburg entry inh: 14.8%; NS1 inh: 3.7%

Results for COC(=O)c1cc(COC(=O)c2cccnc2SC)oc1C ?
StopGo reporter: -11.7%; SARS PLP yeast: -0.9%; Cruzain Triton: -3.3%; Lassa entry inh: 0.7%; Cruzain noTriton: 0.6%; RE007 growth inh: -13.1%; Marburg entry inh: 0.2%; NS1 inh: -12.1%

How did Cc1csc(NC(=O)CCn2c(=O)oc3ccccc32)n1 do in these assays?
StopGo reporter: 11.1%; SARS PLP yeast: -9.1%; Cruzain Triton: -0.7%; Lassa entry inh: 6.3%; Cruzain noTriton: -6.7%; RE007 growth inh: -0.6%; Marburg entry inh: -8.3%; NS1 inh: 3.8%

Results for COc1ccc(NC(=O)c2ccc3[nH]c(=O)c(=O)[nH]c3c2)c(OC)c1 ?
StopGo reporter: 10.5%; SARS PLP yeast: -3.3%; RE007 growth inh: -5.2%; NS1 inh: -0.2%

What do the screens show for `COc1ccccc1NC(=O)C1=C(C)Nc2nnnn2C1c1cc(Br)ccc1OC` (stereo not drawn)?
StopGo reporter: -6.2%; SARS PLP yeast: 1.5%; Cruzain Triton: 3.7%; Lassa entry inh: 0.5%; Cruzain noTriton: inconclusive; RE007 growth inh: 11.8%; Marburg entry inh: 4.4%&9.8%; NS1 inh: -14.6%

Results for COc1ccc(CNCCc2c[nH]c3ccccc23)c(OC)c1OC ?
StopGo reporter: inconclusive; SARS PLP yeast: -8.4%; Lassa entry inh: 6.7%[46.1 µM]; RE007 growth inh: 2.6%; Marburg entry inh: inconclusive; NS1 inh: -0.6%

What do the screens show for `CC(=O)N1c2ccccc2C(CBr)=CC1(C)C`?
StopGo reporter: -10.6%; SARS PLP yeast: 0.9%; Lassa entry inh: inconclusive; RE007 growth inh: 1.3%; Marburg entry inh: 0.9%; NS1 inh: 0.9%

What do the screens show for `Cc1c(CN(C)C)c2c(n1Cc1ccccc1)C(=O)c1ccc(Br)cc1-2`?
StopGo reporter: inconclusive; SARS PLP yeast: -9.6%; Cruzain Triton: 0.9%; Lassa entry inh: inconclusive; Cruzain noTriton: -5.8%; RE007 growth inh: -28.3%; Marburg entry inh: inconclusive; NS1 inh: -15.2%

How did CC(=O)NS(=O)(=O)c1ccc(NS(=O)(=O)c2ccccc2[N+](=O)[O-])cc1 do in these assays?
StopGo reporter: 5.9%; SARS PLP yeast: -0.2%; Lassa entry inh: 11.7%; RE007 growth inh: -11.5%; Marburg entry inh: 6.3%[46.1 µM]; NS1 inh: -0.8%

What do the screens show for `O=C(CCNS(=O)(=O)c1ccc(Br)cc1)NNC(=O)C1COc2ccccc2O1` (stereo not drawn)?
StopGo reporter: -8.8%; SARS PLP yeast: 10.0%; Lassa entry inh: inconclusive; RE007 growth inh: -6.2%; Marburg entry inh: 3.1%[46.1 µM]

Results for Cc1ccc(NC(=O)CSc2nnc(-c3cnccn3)n2C)cc1C ?
StopGo reporter: 2.1%; SARS PLP yeast: 19.7%; RE007 growth inh: -12.3%; NS1 inh: 7.1%

How did CCN(CC)S(=O)(=O)c1cccc(NC(=O)CN2C(=O)c3ccc([N+](=O)[O-])cc3C2=O)c1 do in these assays?
StopGo reporter: 1.7%; SARS PLP yeast: 8.9%; Cruzain Triton: 0.2%; Lassa entry inh: -16.6%; Cruzain noTriton: -11.0%; Marburg entry inh: 4.8%; NS1 inh: -20.0%

How did Cc1ccc(NC(=O)CN2C(=O)c3ccccc3Sc3ccc(C(=O)N4CCOCC4)cc32)c(Cl)c1 do in these assays?
StopGo reporter: 7.5%; Cruzain Triton: -5.9%; Lassa entry inh: 10.9%[46.1 µM]; Cruzain noTriton: inconclusive

How did CCc1ccccc1Nc1nc(N)nc(CSc2nnc3ccccn23)n1 do in these assays?
StopGo reporter: 3.7%; SARS PLP yeast: 0.5%; Lassa entry inh: -1.3%[46.1 µM]; RE007 growth inh: 13.9%; Marburg entry inh: inconclusive

What do the screens show for `Cc1ccc(S(=O)(=O)NC(CC(C)C)C(=O)Nc2nccs2)cc1` (stereo not drawn)?
StopGo reporter: -6.4%; SARS PLP yeast: -4.9%; Cruzain Triton: 3.2%; Lassa entry inh: 5.7%; Cruzain noTriton: 9.5%; RE007 growth inh: 6.1%; Marburg entry inh: -2.0%; NS1 inh: 3.8%

Results for COc1ccnc(Oc2ccc(F)cc2)c1C(=O)N/C=N/OCc1ccccc1 ?
StopGo reporter: 11.4%; SARS PLP yeast: -0.7%; Lassa entry inh: 14.2%; RE007 growth inh: -6.1%; Marburg entry inh: 1.5%[46.1 µM]

Results for CCOc1ccc2c(c1)c(=O)c(S(=O)(=O)c1ccc(C)cc1)cn2CC(=O)Nc1ccc(C)cc1 ?
StopGo reporter: 4.3%; Cruzain Triton: -5.4%; Lassa entry inh: -13.0%[46.1 µM]; Cruzain noTriton: 1.8%; Marburg entry inh: -23.9%[46.1 µM]

Results for CSc1cccc(N2CC(C(=O)N(Cc3nnc(-c4ccccc4Cl)o3)C3CC3)CC2=O)c1 (stereo not drawn) ?
StopGo reporter: -13.9%; SARS PLP yeast: 1.3%; Lassa entry inh: -21.6%; RE007 growth inh: -16.3%; Marburg entry inh: inconclusive; NS1 inh: -22.1%

How did CCN(CC)CCCN=C1N[C@@H](c2ccccc2)C(C(=O)OC)=C(C)N1CC do in these assays?
StopGo reporter: -3.3%; SARS PLP yeast: 4.1%&0.5%; RE007 growth inh: 3.9%; Marburg entry inh: inconclusive; NS1 inh: -15.6%&-7.1%

What do the screens show for `CCN1CCN(C(=O)CN2C(=O)c3ccccc3S2(=O)=O)CC1`?
StopGo reporter: 15.6%; SARS PLP yeast: -4.0%; Lassa entry inh: 23.2%; RE007 growth inh: -21.5%; Marburg entry inh: 16.7%

What do the screens show for `CCc1ccccc1NC(=O)Cn1c(=O)n(-c2ccc(C)c(C)c2)c(=O)c2oc3ccccc3c21`?
StopGo reporter: 1.1%; Cruzain Triton: -0.2%; Lassa entry inh: 22.1%[46.1 µM]; Cruzain noTriton: 4.5%

How did CCOC(=O)CSC1=Nc2ccccc2C2=NC(CCC(=O)NCc3ccc(F)cc3)C(=O)N12 (stereo not drawn) do in these assays?
StopGo reporter: 0.0%; Cruzain Triton: -3.8%; Lassa entry inh: -6.5%[46.1 µM]; Cruzain noTriton: -4.3%

Results for Cc1cccnc1Nc1nc(-c2ccccn2)cs1 ?
StopGo reporter: -42.6%; SARS PLP yeast: -12.7%; Cruzain Triton: -2.5%; Lassa entry inh: 7.08µM*; Cruzain noTriton: 8.7%; RE007 growth inh: 39.8µM*; Marburg entry inh: inconclusive; NS1 inh: -145.0%

Results for COc1ccccc1CN1CC(C(=O)N(C)Cc2ccc(C)o2)CCC1=O (stereo not drawn) ?
StopGo reporter: 17.2%; SARS PLP yeast: -0.5%; RE007 growth inh: -0.8%; NS1 inh: -3.0%

What do the screens show for `CCOc1cccc(C(=O)NC2=NCCS2)c1`?
StopGo reporter: 0.0%; SARS PLP yeast: -10.4%; Lassa entry inh: inconclusive; RE007 growth inh: 2.8%; Marburg entry inh: inconclusive; NS1 inh: -30.5%

Results for CCC(=O)Nc1ccc(C(=O)NNC(=O)c2ccc(Cl)cc2)cc1 ?
StopGo reporter: -6.6%; SARS PLP yeast: 6.9%; Lassa entry inh: -0.6%; RE007 growth inh: -14.1%; Marburg entry inh: 5.1%; NS1 inh: -9.3%

Results for Nc1ncnc2nc(SCCc3ccccc3)[nH]c12 ?
StopGo reporter: 0.0%; SARS PLP yeast: -0.6%; Cruzain Triton: 7.5%; Lassa entry inh: -21.1%; Cruzain noTriton: -6.7%; RE007 growth inh: 7.5%; Marburg entry inh: -11.7%; NS1 inh: 3.3%

What do the screens show for `CCc1ccccc1NC(=O)Cn1nc2c3cc(F)ccc3n(Cc3cccc(C)c3)cc-2c1=O`?
StopGo reporter: -12.4%; Cruzain Triton: -2.6%; Lassa entry inh: -9.5%[46.1 µM]; Cruzain noTriton: -3.7%

What do the screens show for `CCn1c(Cc2ccccc2)nnc1SCC(=O)Nc1ccccc1F`?
StopGo reporter: 0.0%; SARS PLP yeast: 0.0%; RE007 growth inh: 7.2%; NS1 inh: -6.5%

Results for OC(COCc1ccco1)CN1CCN(c2ccccc2)CC1 (stereo not drawn) ?
StopGo reporter: -8.3%; SARS PLP yeast: 2.8%; Cruzain Triton: -2.2%; Lassa entry inh: 2.7%; Cruzain noTriton: -17.1%; RE007 growth inh: -23.3%; Marburg entry inh: 20.5%; NS1 inh: 2.4%

How did Cc1nn(CC(=O)Nc2nc3ccccc3s2)c(C)c1[N+](=O)[O-] do in these assays?
SARS PLP yeast: -1.7%; Cruzain Triton: -3.3%; Lassa entry inh: 6.9%; Cruzain noTriton: -6.5%; RE007 growth inh: -8.4%; Marburg entry inh: 2.3%; NS1 inh: 13.4%

Results for S=c1[nH]nc(C2CC2c2ccc(Cl)cc2)n1-c1ccc(Cl)cc1 (stereo not drawn) ?
StopGo reporter: -12.0%; SARS PLP yeast: -13.7%; Cruzain Triton: -8.7%; Lassa entry inh: 15.8µM*; Cruzain noTriton: -1.6%; RE007 growth inh: 11.5%; Marburg entry inh: -20.9%; NS1 inh: 18.5%
